gsp ag: agonists of gsp mutant (McCune-Albright syndrome) | gsp mutant cells, cAMP HTRF, 30 min; control for the full effect not named in the record | Potency, µM (series often up to 76.9 µM), for the others: at the top dose activation (cAMP increase), usual class: activators | actives 0.13% (n = 340,000) | AID 624287; active = well fitted activation curve with a large enough effect; inconclusive = small, poorly fitted or top-dose-only effect, or another doubt; inactive = no such curve, though single readings can be large or run the other way; cell line not stated here;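 also: phosphodiesterase inhibitor Ro 20-1724 added with compounds to block cAMP breakdown; potency is read from the fitted curve at half-maximal effect; nearly all actives have a fitted effect of over 60% in size; about a fifth of the inactives were tested at one dose only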
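Cells stably selected in G418 were plated at 2000/well, grown 16-24 hr, then given compounds in DMSO with the PDE inhibitor […] (300 uM solution added) for 30 min at 37C; cAMP was read by HTRF.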
TRPV1 potentiator: potentiators of human vanilloid receptor 1 (TRPV1); actives 0.02% (n = 320,000); Q8NER1; TRPV1-expressing cells, Fluo-8 calcium influx, capsaicin EC20 potentiation; host cell line not named in the record; control for the full effect not named in the record; potentiation, % at 8.33 µM; active means potentiation above 80%; inconclusive means 30% to 80%; inactive means below 30%; also: 0% is about no effect
Target sequence (Q8NER1 whole entry, looked up): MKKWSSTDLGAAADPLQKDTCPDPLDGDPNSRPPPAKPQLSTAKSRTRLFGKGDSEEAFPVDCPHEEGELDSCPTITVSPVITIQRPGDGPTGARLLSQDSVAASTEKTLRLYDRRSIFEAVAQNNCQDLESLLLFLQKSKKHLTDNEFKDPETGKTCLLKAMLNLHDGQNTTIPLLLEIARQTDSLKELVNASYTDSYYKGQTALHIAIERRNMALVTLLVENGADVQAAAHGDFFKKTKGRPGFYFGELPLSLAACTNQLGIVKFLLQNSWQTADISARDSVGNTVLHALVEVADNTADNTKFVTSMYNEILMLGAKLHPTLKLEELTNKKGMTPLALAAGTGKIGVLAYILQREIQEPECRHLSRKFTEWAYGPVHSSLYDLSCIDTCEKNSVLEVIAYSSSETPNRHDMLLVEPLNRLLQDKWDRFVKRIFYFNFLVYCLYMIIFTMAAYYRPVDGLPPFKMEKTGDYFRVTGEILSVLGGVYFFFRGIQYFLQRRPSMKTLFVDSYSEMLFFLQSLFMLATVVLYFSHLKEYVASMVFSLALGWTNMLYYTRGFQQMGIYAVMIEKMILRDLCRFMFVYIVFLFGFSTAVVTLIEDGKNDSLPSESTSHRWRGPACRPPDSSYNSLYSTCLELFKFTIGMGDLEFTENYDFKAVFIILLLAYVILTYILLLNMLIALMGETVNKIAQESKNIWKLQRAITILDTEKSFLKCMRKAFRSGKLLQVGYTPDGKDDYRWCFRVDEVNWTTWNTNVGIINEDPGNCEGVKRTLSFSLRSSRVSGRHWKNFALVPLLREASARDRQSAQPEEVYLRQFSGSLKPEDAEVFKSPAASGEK
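Fluo-8 calcium influx in TRPV1-expressing cells, kinetic read (ex 480/em 520 nm). Compound added and read 3 min for agonist activity, followed by capsaicin at EC20 final and 2 min further read for enhancement.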
gsp antagonist: antagonists of gsp mutant (McCune-Albright syndrome); actives 0.4% (n = 340,000); gsp-mutant cells, cAMP HTRF, 30 min; control for the full effect not named in the record; Potency, µM (top dose mostly 76.9 µM), without a hit: top-dose activity change, negative = inhibition, most hits filed as inhibitors; active = falling curve of any shape with a large fitted effect; inconclusive = falling curve, mostly with a smaller effect; inactive = flat or rising curve; cell line not stated here;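 also: intracellular cAMP measured with PDE inhibitor Ro 20-1724 present during compound exposure; potency is read from the fitted curve at half-maximal effect; % is scaled to controls: 0 for no effect and ±100 for the full control effect; nearly all actives have a fitted effect of over 65% in size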
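HTRF cAMP measurement after 30 min RT detection following 30 min, 37C compound treatment alongside […] (added as 300 uM solution) in G418-selected cells seeded at 2000/well and grown 16–24 h.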
TRPML1 inh: inhibitors of human TRPML1 channel; Q9GZU1; TRPML1-inducible cells, Ca2+ dye fluorescence, FDSS; stronger effect = lower value; inhibition of EC80 agonist-evoked calcium signal; activity change, negative = inhibition, % (test concentration not listed); actives 0.02% (n = 390,000); in the data active means activity change below about -50%; inconclusive means about -30% to -50%; inactive means above about -30%;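 also: stimulus is agonist 54-4 at its EC80 concentration; % is scaled to controls: 0 for no effect and ±100 for the full control effect; compound concentration not given in the record; the text of the record puts the active cut at -80%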
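TRPML1-DL cells, Tet-induced overnight (~16 h, 37 °C) at 1,500 cells/well, were loaded with Ca8 no-wash dye plus quencher for 45-90 min at room temperature. Compounds were pinned during FDSS kinetic reading; agonist 54-4 at EC80 (4 uM final) then added.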
ClpP mod: qHTS Assay for Activators of ClpP | purified B. subtilis ClpP, FRET peptide cleavage, 20 min | ATP-dependent Clp protease proteolytic subunit (Bacillus subtilis (strain 168)), P80244 | actives 1.9% (n = 340,000) | Potency, µM (doses to about 57.5 µM), for the others: at the top dose activity change, negative = active; active = well fitted falling curve with a large enough effect; inconclusive = small, poorly fitted or top-dose-only effect; inactive = no such curve, though single readings can be large or run the other way; also: potency is read from the fitted curve at half-maximal effect; the source files actives as falling curves though it sought activators and does not explain the sign; nearly all actives have a fitted effect of over 65% in size; many hits overshoot -100%
Target sequence (P80244 whole entry, looked up): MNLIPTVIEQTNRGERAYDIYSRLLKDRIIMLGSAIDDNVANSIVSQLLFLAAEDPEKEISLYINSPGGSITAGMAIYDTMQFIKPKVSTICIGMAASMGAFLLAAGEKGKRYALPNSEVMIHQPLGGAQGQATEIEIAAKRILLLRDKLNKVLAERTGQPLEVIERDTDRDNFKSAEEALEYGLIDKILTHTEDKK
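Purified B. subtilis ClpP, 10 microg/mL final in Tris/HCl pH8 with KCl, BSA, glycerol and Tween-20, cleaved an Abz/nitrotyrosine-quenched decapeptide. Fluorescence (ex 320, em 430) was read at 0 and 20 min at room temperature. Delta was normalized to 5.8 microM ADEP and DMSO/no-enzyme controls.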
Sfp PPTase inh: inhibitors of Bacillus subtilis Sfp phosphopantetheinyl transferase; actives 3.5% (n = 310,000); Q9F4F7; Biochemical Sfp PPTase activity, qHTS; AID 1490; Potency, µM, inactives show max response, negative = inhibition, hits mostly inhibitors; active = well fitted inhibition curve with a large enough effect; inconclusive = small, poorly fitted or top-dose-only effect, or another doubt; inactive = no such curve, though single readings can be large or run the other way;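 also: the enzyme is Sfp with the accession as filed and its product quenches rhodamine fluorescence; potency is read from the fitted curve at half-maximal effect; 0% = enzyme reaction without inhibitor and -100% = no enzyme wells; top concentration of the series not given in the record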
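With Hepes-Na pH 7.6 buffer containing 10 mM MgCl2, Sfp (15 nM) modified BHQ-2-YbbR (12.5 uM) using rhodamine-CoA (5 uM). Two reads 30 minutes apart at 525/598 nm yielded each well's rate.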
Menin MLL FP FL: inhibitors of human menin-MLL interaction, wild-type MLL peptide | Fluorescence polarization, fluorescein-MLL peptide displacement from menin | AID 1766 | FP activity change, % at 61.4 µM | 290,000 tested, under 10 active; inconclusive = falling polarisation curve, or a change in total fluorescence; inactive = total fluorescence flat and polarisation flat or rising; no compound was filed as active; the % refers to the polarisation; negative = inhibition;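 also: % of control where 0% means no effect; inhibitors lower the polarisation; unlabelled MLL peptide was the positive control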
The depositor's hits bear a star; ? = inconclusive; / = no result given; [ ] = another dose, or the depositor's remark.

SMILES | gsp ag | TRPV1 potentiator | gsp antagonist | TRPML1 inh | ClpP mod | Sfp PPTase inh | Menin MLL FP FL
O=C(COC(=O)c1ccc2c(=O)n3c(nc2c1)CCC3)NC1CCS(=O)(=O)C1 (centres undefined) | 2%[15.4 µM] | 5 | -12% | -6 | -2.6% | 0% | 1.1
O=C(c1ccccc1)c1c[nH]cc1-c1ccccc1 | -24% | 6 | 1% | 5 | 0.8% | 13% | 2.2
COc1ccc(CCNS(=O)(=O)CCNC(=O)c2ccc3c(c2)OCO3)cc1 | 19%[15.4 µM] | -10 | -9% | -7 | 0.2% | / | /
CCNC(=O)CC1C(=O)N(c2ccccc2)C(=O)N1CCc1ccc(OC)c(OC)c1 (centres undefined) | -13% | 29 | 9% | -7 | 1.3% | -1% | -1.7
COc1ccc(-n2ncc3c2CC(C)(C)CC3NC(=O)c2cnc(C)cn2)cc1 (centres undefined) | -36% | -11 | 2% | 0 | 0.8% | 27% | 1.6
CC(C)C(NC(=O)C12CC3CC(CC(C3)C1)C2)C(=O)N/N=C/C1=C(N2CCOCC2)C(=C\c2ccc([N+](=O)[O-])cc2)/CC1 (centres undefined) | -93%[inhibitor] | 4 | 2% | -16 | 1.4% | 12% | 1.1
O=C(NCCOc1ccc(Cl)cc1)c1cccc(S(=O)(=O)N2CCCC2)c1 | 1% | -7 | -18% | -10 | 0.9% | / | /
COc1ccc(OC)c(C2NC(=O)NC(C)=C2C(=O)Nc2ccc(C)cc2C)c1 (centres undefined) | -39%[inhibitor] | 7 | 4% | 6 | 2.3% | -22% | 2.8
O=C(c1ccc2ncsc2c1)N1CCN(c2ccc(O)cc2)CC1 | 21% | 7 | -1% | -17 | -0.9% | -95% | 1.7
CNC(=O)C(=O)NCCc1ccc(Cl)cc1 | -10% | -8 | 5% | 35 | -0.5% | 24% | 3.7

10 of these compounds in another layout:
Every second line gives: gsp ag	TRPV1 potentiator	gsp antagonist	TRPML1 inh	ClpP mod	Sfp PPTase inh	Menin MLL FP FL
- O=C(COC(=O)c1ccc2c(=O)n3c(nc2c1)CCC3)NC1CCS(=O)(=O)C1 (centres undefined)
→ 2%[15.4 µM]	5	-12%	-6	-2.6%	0%	1.1
- O=C(c1ccccc1)c1c[nH]cc1-c1ccccc1
→ -24%	6	1%	5	0.8%	13%	2.2
- COc1ccc(CCNS(=O)(=O)CCNC(=O)c2ccc3c(c2)OCO3)cc1
→ 19%[15.4 µM]	-10	-9%	-7	0.2%	/	/
- CCNC(=O)CC1C(=O)N(c2ccccc2)C(=O)N1CCc1ccc(OC)c(OC)c1 (centres undefined)
→ -13%	29	9%	-7	1.3%	-1%	-1.7
- COc1ccc(-n2ncc3c2CC(C)(C)CC3NC(=O)c2cnc(C)cn2)cc1 (centres undefined)
→ -36%	-11	2%	0	0.8%	27%	1.6
- CC(C)C(NC(=O)C12CC3CC(CC(C3)C1)C2)C(=O)N/N=C/C1=C(N2CCOCC2)C(=C\c2ccc([N+](=O)[O-])cc2)/CC1 (centres undefined)
→ -93%[inhibitor]	4	2%	-16	1.4%	12%	1.1
- O=C(NCCOc1ccc(Cl)cc1)c1cccc(S(=O)(=O)N2CCCC2)c1
→ 1%	-7	-18%	-10	0.9%	/	/
- COc1ccc(OC)c(C2NC(=O)NC(C)=C2C(=O)Nc2ccc(C)cc2C)c1 (centres undefined)
→ -39%[inhibitor]	7	4%	6	2.3%	-22%	2.8
- O=C(c1ccc2ncsc2c1)N1CCN(c2ccc(O)cc2)CC1
→ 21%	7	-1%	-17	-0.9%	-95%	1.7
- CNC(=O)C(=O)NCCc1ccc(Cl)cc1
→ -10%	-8	5%	35	-0.5%	24%	3.7

(more compounds)
SMILES | gsp ag | TRPV1 potentiator | gsp antagonist | TRPML1 inh | ClpP mod | Sfp PPTase inh | Menin MLL FP FL
c1nc(N2CCCCC2)c2[nH]cnc2n1 | -2% | 3 | 8% | 25 | -2.8% | 13% | 1.9
COc1ccc(NC(=S)N(CCCN2CCC(C)CC2)Cc2cccs2)cc1 | 4%[15.4 µM] | 11 | -9% | 3 | / | 11% | -1.0
Cc1cccc(NC(=O)CSc2nnc([C@H](C)NC(=O)OC(C)(C)C)o2)c1C | ? | 3 | -3% | 1 | -0.1% | 10% | 2.5
CN(c1ccccc1)S(=O)(=O)c1cccc(C(=O)OCC(=O)Nc2ccc(C(N)=O)cc2)c1 | ? | / | -13% | -2 | / | / | /
CS(=O)(=O)N1CCN(c2ccc(NC(=O)c3ccc([N+](=O)[O-])o3)cc2)CC1 | ? | -1 | -6% | 0 | 0.7% | 9% | -4.1
Cc1ccc(S(=O)(=O)NN2C(=O)c3ccccc3NC2c2ccco2)cc1 (centres undefined) | -38%[inhibitor] | -3 | 6% | -3 | / | 7% | 3.8
COc1ccc(CNC(=O)CN(Cc2ccccc2)C(=O)CCC(=O)Nc2nccs2)cc1 | -2%[15.4 µM] | -2 | 3% | -8 | -1.1% | -7% | 1.4
O=C(c1ccccc1)N1N=C(c2ccccc2)CC1c1ccccc1 (centres undefined) | 5% | ? | -22% | 46 | / | -24% | -4.9
Cc1c(Cl)ccc2c1NC(=O)C21NC(CCC(N)=O)[C@H]2C(=O)N(c3ccc(Cl)cc3)C(=O)[C@H]21 (some centres undefined) | -1% | / | 2% | 3 | -0.6% | -15% | 4.8
CC(C)CC(NC(=O)OC(C)(C)C)c1cn([C@@H](CCC(=O)OC(C)(C)C)C(=O)N2CCN(C(=O)OC(C)(C)C)CC2)nn1 (some centres undefined) | / | 19 | -4% | -6 | 0.9% | 5% | -2.7
CCOC(=O)c1ccc(NC(=O)C2(N3C(=O)c4ccccc4C3=O)CCCC2)cc1 | 3%[15.4 µM] | / | -17% | 0 | 1.1% | / | /
COc1ccc(C2c3c(oc4ccccc4c3=O)C(=O)N2Cc2ccncc2)cc1 (centres undefined) | / | 7 | / | / | / | 8% | 1.9
Clc1ccc(-n2cc(-c3ccc(Br)cc3)[n+]3c2CCCCC3)cc1 | 14% | -3 | 5% | 38 | 0.1% | 2% | 3.5
O=C(N/N=C/c1cn(Cc2ccccc2)c2ccccc12)c1ccncc1 | 10%[15.4 µM] | -12 | / | 14 | / | -6% | -0.5
Cc1csc(SCc2nc3sc4c(c3c(=O)[nH]2)CCC4)n1 | -6% | 23 | 0% | -3 | -3.9% | 6% | 1.3
Cc1cccc(C(=O)NCCc2nnc(SCC(=O)Nc3cccc(C(=O)O)c3)n2C)c1 | -3%[15.4 µM] | 20 | 5% | -10 | -2.4% | 3% | /
O=C(c1ccc(Cl)cc1)c1nnc(-c2ccncc2)o1 | 2% | -6 | 0% | -5 | 0.6% | 13% | -7.4
C=CCn1c(SCC(=O)O)nnc1-c1ccccc1 | -11% | 3 | 4% | 5 | 0.4% | 14% | 2.7
CC1CCC(NC(=O)CN2C(=O)c3ccccc3S2(=O)=O)CC1 (centres undefined) | 4% | / | 4% | -3 | 0.0% | / | /
CC(C)N(Cc1ccccc1)C(=O)/C=C/c1ccccc1[N+](=O)[O-] | 20% | -13 | -7% | -4 | / | 11% | -0.4
Cc1ccc(C)c(-c2[nH]ncc2CN2CCCC(CO)(Cc3ccccc3C)C2)c1 (centres undefined) | -9%[15.4 µM] | -5 | 8% | -2 | / | 0% | -2.3
CC(C)n1c(O)c(/C=C2\C=Nc3ccccc32)sc1=Nc1ccccc1 | ? | 13 | -8% | 14 | 0.2% | 16% | 0.8
COc1cccc(-c2nc(CS(=O)(=O)CC(=O)Nc3ccc(F)cc3F)c(C)o2)c1 | ? | -15 | ? | 5 | -2.6% | 17% | 1.5
S=c1[nH]nc(COc2ccccc2)n1-c1ccc(Cl)cc1 | 16% | / | -19% | 10 | / | / | /
O=C(O)CCc1ccc(-c2ccccc2)n1CC1CCCO1 (centres undefined) | 28% | 3 | 0% | -27 | ? | ? | 2.1
O=C(/C=C/c1cc([N+](=O)[O-])ccc1OC(F)F)Nc1cccc(OC(F)F)c1 | ? | -11 | -10% | 9 | -1.6% | 4% | -1.5
O=C(Cn1c(NCCO)nc2ccccc21)Nc1cccc(S(=O)(=O)N2CCCC2)c1 | 7%[15.4 µM] | / | -2% | -14 | 0.3% | / | /
COc1ccc(CCN(C)C(=O)c2c(C)noc2C)cc1OC | 24% | 5 | 10% | -11 | -1.7% | / | /
COc1ccc(C(=O)NCC(=O)OCC(=O)NC2CCCCCC2)cc1 | -71%[inhibitor] | / | -12% | 31 | 0.9% | / | /
O=C(NCCCn1ccnc1)c1cc(-c2ccc(Br)cc2)on1 | 20% | -17 | -1% | 9 | -0.6% | 16% | 0.7
O=C(NCCN1CCOCC1)N1CCOCC1 | -8% | 0 | 14% | -4 | -4.0% | 12% | 2.0
Cc1cccc2nc(CSc3nnnn3-c3ccccc3)cn12 | 18% | / | 6% | -4 | -3.6% | 21% | 2.7
CCOc1ccc(CN(C)C(=O)CN2C(=O)NC(c3ccccc3)(c3ccccc3)C2=O)cc1 | -6% | 13 | -10% | -1 | 4.3% | / | /
CC(C)CCN1C(=O)c2ccc(C(=O)OCC(=O)N(C)C3CCS(=O)(=O)C3)cc2C1=O (centres undefined) | 22%[15.4 µM] | 3 | -11% | 0 | / | / | /
CCc1ccc(C(=O)COC(=O)c2cccc(N3C(=O)c4c(C)nc5ccccc5c4C3=O)c2)cc1 | -26% | -9 | -14% | 8 | 1.9% | 3% | 6.1
O=C(NCc1ccco1)/C(=C\c1ccco1)NC(=O)c1cccs1 | 11%[15.4 µM] | 16 | / | 5 | / | -21% | ?
O=C(Nc1c(F)c(F)c(F)c(F)c1F)NC1CCCCC1 | 0% | -7 | 7% | 19 | 0.2% | 1% | -0.8
COc1ccc(/C=N/n2c(=S)n(C)c3ccccc32)cc1OC | 3% | -10 | -10% | 4 | -0.5% | 1% | 6.1
